High-throughput results deposited in PubChem by National Center for Advancing Translational Sciences (NCATS).
VACV Venus inh = vaccinia inhibition (Venus reporter) | Vaccinia virus Venus reporter expression, fluorescence | Potency, µM (highest dose often 36.5 µM), inactives show at the top dose activity change, negative = inhibition, hits mostly inhibitors | actives 0.46% (n = 330,000) | AID 720580; active means well fitted inhibition curve with a large enough effect; inconclusive means small, poorly fitted or top-dose-only effect; inactive means no such curve, though single readings can be large or run the other way; tested in A549 cells; further: nearly all actives have a fitted effect of over 30% in size; inactives centre near -10
Vaccinia mCherry = inhibitors of vaccinia virus infection (mCherry reporter signal); Vaccinia virus mCherry reporter infection, fluorescence; about a quarter of the inactives have no number; Potency, µM (highest dose often 36.5 µM), inactives show at the top dose activity change, negative = inhibition, hits mostly inhibitors; actives 0.63% (n = 310,000); active = well fitted inhibition curve with a large enough effect; inconclusive = small, poorly fitted or top-dose-only effect; inactive = no such curve, though single readings can be large or run the other way; tested in A549 cells; further: nearly all actives have a fitted effect of over 35% in size; inactives centre near -10
* hit, by the source's call; i = inactive; ? = inconclusive; . = not tested or not shown; & = joins results of further samples; [ ] = remark or other dose. On the % scale 0 is the no-effect control and ±100 the full control effect; potency means the concentration at half of the fitted maximal effect.

entry	Structure	VACV Venus inh	Vaccinia mCherry
1	COc1ccccc1N1CCN(C(=O)c2cc(-c3ccc(C)c(F)c3)on2)CC1	-4.0%	-1.3%
2	CC(=O)c1c(C)[nH]c(C(=O)NCCC2=CCCCC2)c1C	?	?
3	Cc1cccc(CNC(=O)c2cnn(-c3ncc(C)c(-c4ccc(F)cc4)n3)c2C)n1	-21.8%	-2.5%
4	COc1ccc(NC(=O)CCc2nnc3ccc(NCc4ccco4)nn23)cc1OC	-16.4%	-21.3%
5	COc1ccccc1C(=O)Nc1ccnn1C1CCN(Cc2cnn(C)c2)CC1	-10.6%	i
6	CN1CCN(C(=O)C[C@@H]2CC[C@@H]3[C@H](COC[C@@H](O)CN3Cc3cccc(Cl)c3)O2)CC1	-4.2%	-19.9%
7	O=C(NCc1ccc(C(F)(F)F)cc1)c1ccc2c(c1)S(=O)(=O)c1ccccc1C2=O	-7.0%	?
8	Cc1ccc(NC(=O)c2cn(-c3cccc(C)n3)cn2)cc1	-5.6%	.
9	Cc1nc2[nH]c(=S)[nH]c(=O)c2nc1C	-6.7%	-1.0%
10	COc1ccccc1CNC(=O)CCCn1nc(C)c2sc3ccccc3c2c1=O	-4.8%	-3.0%
11	O=C(c1ccc2c(c1)N(Cc1ccc(F)cc1)C(=O)c1ccccc1S2(=O)=O)N1CCN(c2ccccn2)CC1	-7.2%&-14.3%	-3.0%&-22.3%
12	C=CCNc1ncnc2c1[nH]c1ccc(C)cc12	?	?
13	O=C(COC(=O)c1cccc(Br)c1)NC(=O)NC1CCCC1	-19.0%	-3.0%
14	O=C(Nc1ccc(C(=O)OCc2cc(=O)n3nc(C4CC4)sc3n2)cc1)c1ccc(F)cc1	0.0%	-10.1%
15	C[n+]1c(/C=C/c2ccnc3ccccc23)cc(/C=C/c2ccnc3ccccc23)c2ccccc21	7.4%	21.2%
16	CC(C)(C)C(=O)NCCc1csc2nc(-c3ccc(F)cc3)nn12	-12.3%	-21.6%
17	Cn1c(SCC(=O)c2cc(Cl)c(Cl)s2)nnc1-c1ccco1	-1.7%	-13.7%
18	CCOc1ccc(Sc2cc(C(=O)NCCc3ccc(OC)c(OC)c3)c3ccccc3n2)cc1	?	?
19	Nc1c(C(=O)NCc2ccc3c(c2)OCO3)nnn1Cc1ccc(Br)cc1	9.0%	-5.4%
20	Cc1ccc(S(=O)(=O)Cn2nnnc2CN2CCCC3(CCCCC3)C2)cc1	?	-21.6%
21	O=C(N/C(=C\c1cccc(Br)c1)C(=O)N1CCCCC1)c1ccco1	-10.4%	-7.8%
22	N#C/C(=C\c1cccnc1)C(=O)NC1CCCCC1	-4.7%	-1.3%
23	COc1ccc(C2CC(c3cccs3)=NN2C(=O)CSc2nc(=O)n3ccc(C)cc3n2)cc1 (stereo not drawn)	-8.7%	i
24	O=C(COC(=O)Cn1c(C(F)(F)F)nc2ccccc21)Nc1ccc2c(c1)OCCO2	-2.0%	.
25	CCCC(=O)N1CCN(c2ccc(NC(=O)c3cccs3)cc2)CC1	1.6%	-14.9%

From no. 1 up to 20, copied from above:
entry	Structure	VACV Venus inh	Vaccinia mCherry
1	COc1ccccc1N1CCN(C(=O)c2cc(-c3ccc(C)c(F)c3)on2)CC1	-4.0%	-1.3%
2	CC(=O)c1c(C)[nH]c(C(=O)NCCC2=CCCCC2)c1C	?	?
3	Cc1cccc(CNC(=O)c2cnn(-c3ncc(C)c(-c4ccc(F)cc4)n3)c2C)n1	-21.8%	-2.5%
4	COc1ccc(NC(=O)CCc2nnc3ccc(NCc4ccco4)nn23)cc1OC	-16.4%	-21.3%
5	COc1ccccc1C(=O)Nc1ccnn1C1CCN(Cc2cnn(C)c2)CC1	-10.6%	i
6	CN1CCN(C(=O)C[C@@H]2CC[C@@H]3[C@H](COC[C@@H](O)CN3Cc3cccc(Cl)c3)O2)CC1	-4.2%	-19.9%
7	O=C(NCc1ccc(C(F)(F)F)cc1)c1ccc2c(c1)S(=O)(=O)c1ccccc1C2=O	-7.0%	?
8	Cc1ccc(NC(=O)c2cn(-c3cccc(C)n3)cn2)cc1	-5.6%	.
9	Cc1nc2[nH]c(=S)[nH]c(=O)c2nc1C	-6.7%	-1.0%
10	COc1ccccc1CNC(=O)CCCn1nc(C)c2sc3ccccc3c2c1=O	-4.8%	-3.0%
11	O=C(c1ccc2c(c1)N(Cc1ccc(F)cc1)C(=O)c1ccccc1S2(=O)=O)N1CCN(c2ccccn2)CC1	-7.2%&-14.3%	-3.0%&-22.3%
12	C=CCNc1ncnc2c1[nH]c1ccc(C)cc12	?	?
13	O=C(COC(=O)c1cccc(Br)c1)NC(=O)NC1CCCC1	-19.0%	-3.0%
14	O=C(Nc1ccc(C(=O)OCc2cc(=O)n3nc(C4CC4)sc3n2)cc1)c1ccc(F)cc1	0.0%	-10.1%
15	C[n+]1c(/C=C/c2ccnc3ccccc23)cc(/C=C/c2ccnc3ccccc23)c2ccccc21	7.4%	21.2%
16	CC(C)(C)C(=O)NCCc1csc2nc(-c3ccc(F)cc3)nn12	-12.3%	-21.6%
17	Cn1c(SCC(=O)c2cc(Cl)c(Cl)s2)nnc1-c1ccco1	-1.7%	-13.7%
18	CCOc1ccc(Sc2cc(C(=O)NCCc3ccc(OC)c(OC)c3)c3ccccc3n2)cc1	?	?
19	Nc1c(C(=O)NCc2ccc3c(c2)OCO3)nnn1Cc1ccc(Br)cc1	9.0%	-5.4%
20	Cc1ccc(S(=O)(=O)Cn2nnnc2CN2CCCC3(CCCCC3)C2)cc1	?	-21.6%

Next part.
entry	Structure	VACV Venus inh	Vaccinia mCherry
26	COCCNC(=O)c1ccc(-c2ccc(OC)cc2C)c2ccoc12	?	-19.9%
27	O=C(CCC(=O)N1CCOc2ccc(Cl)cc21)NCCN1CCOCC1	0.4%	-13.5%
28	Cc1ccc2nc(SCC(=O)N3N=C(c4cccs4)CC3c3ccc(F)cc3)nc(=O)n2c1 (stereo not drawn)	-13.8%	-11.4%
29	COc1ccc(NC(=O)CCS(=O)(=O)c2cccc3nonc23)cc1	-9.0%	-11.0%
30	O=C(Nc1cccnc1)c1cccc(NC(=O)c2ccco2)c1	-6.3%	.
31	O=c1[nH]c2ccc(S(=O)(=O)Nc3ccc(Cl)cc3)cc2o1	-1.0%	i
32	Cc1ccc2nc(N(CCCN(C)C)C(=O)CCc3ccccc3)sc2c1	-16.0%	i
33	Cn1cccc1CC(=O)N/N=C\c1ccccc1	-6.0%	-18.5%
34	CCCNC(=O)c1cc(C2CCCCN2C(=O)c2cccs2)on1 (stereo not drawn)	?	i
35	O=C(c1cc(C2CC2)nn1-c1ccccc1)N1CCN(c2ccccc2O)CC1	-20.6%	-23.0%
36	O=C(NCc1ccc(F)cc1)c1ccc2c(O)c(S(=O)(=O)c3ccccc3)c(=O)[nH]c2c1	-2.3%	-7.6%
37	O=C(NC1CCCC1)C1c2ccccc2OCC(=O)N1CCc1ccccc1 (stereo not drawn)	2.0%	i
38	CCc1nn(CC(=O)NCc2ccco2)c(=O)c2cc3cc(F)ccc3n12	7.4%	0.1%
39	Clc1ccc2c(N/N=C/c3ccc(Br)cc3)ccnc2c1	?	?
40	COC(=O)C(C(=O)Nc1ccc(OC)cc1)C1CCCCCC1 (stereo not drawn)	?	.
41	COc1ccc(CN2CCC(C)(Oc3ccc(C(C)=O)cc3)C2)c2ccccc12 (stereo not drawn)	-0.8%	-2.7%
42	O=C(O)c1[nH]c2ccc([N+](=O)[O-])cc2c1-c1ccccc1	-11.1%	i
43	COc1ccc(CN(C(=O)Cn2nnc(-c3ccc(C)o3)n2)C(C(=O)NCC2CCCO2)c2ccco2)cc1 (stereo not drawn)	-14.6%	-12.0%
44	CC(C)CCN(Cc1ccco1)C(=O)Cn1ncc2c([nH]c3ccccc32)c1=O	-6.5%	-8.8%
45	c1ccc(OCc2nn3c(-c4ccncc4)nnc3s2)cc1	-15.1%	-22.8%
46	C=CC[C@@H](CC(=O)N(CCO)Cc1ccccc1)C(=O)N[C@H](COC(=O)[C@@H](CC=C)Cc1ccc(F)cc1)c1ccccc1	?	-19.4%
47	O=S(=O)(c1ccc(Br)cc1F)N1CC[C@H](O)C1	4.0%	-14.6%
48	O=c1nc(N2CCCCC2)nc2n1CCO2	-9.2%	-2.7%
49	CCCNC(=O)c1onc(CSc2ccccn2)c1C(=O)NCCC	-7.6%	-11.9%
50	CCCc1cc(=O)n2[nH]cc(-c3ccc(Cl)cc3)c2n1	?	?

Following part.
entry	Structure	VACV Venus inh	Vaccinia mCherry
51	Cc1ccc(CNC(=O)CC2C(=O)Nc3c2c(=O)n(C)c(=O)n3Cc2ccccc2)cc1 (stereo not drawn)	-2.6%	i
52	COc1ccccc1C1NC(=O)NC(C)=C1C(=O)Nc1cccc(C)c1C (stereo not drawn)	-3.2%	-11.6%
53	COC(=O)c1ccc(COc2ccc(/C=C(\C#N)c3nc4ccccc4[nH]3)cc2OC)o1	-8.8%	-14.1%
54	COc1ccc2[nH]c(=O)c(CN(C(=O)c3ccco3)C(C)C)cc2c1	-7.8%	-10.9%
55	O=C1[C@H]2[C@@H](c3ccc(C(F)(F)F)cc3)N[C@]3(CCCN(Cc4ccc(C(F)(F)F)cc4)C3=O)[C@H]2C(=O)N1Cc1ccccc1	?	-19.4%
56	O=C(c1ccco1)N1CCN(C(c2cccs2)c2nnnn2C2CCCCC2)CC1 (stereo not drawn)	-17.7%	-24.2%
57	CCN1CCN(C(=O)c2ccc(OC)c(S(=O)(=O)Nc3ccc(C)cc3)c2)CC1	-2.9%	-22.6%
58	O=C(NCc1cccc(Cl)c1)c1cc2ccc3cccnc3c2[nH]1	-20.8%	-14.6%
59	Cc1csc(=Nc2cccnc2)n1Cc1ccco1	-14.9%	-4.9%
60	COc1c(/C=N/Nc2ccc([N+](=O)[O-])cc2[N+](=O)[O-])c(C)nn1-c1ccccc1	-7.5%	i
61	COc1ccc(/C=C(\C#N)c2nc3ccccc3n2C)c(OC)c1	-5.4%	-9.6%
62	Cn1c(C(=O)Nc2ccc3c(c2)OCO3)cc2c(=O)n(C)c3ccccc3c21	-5.3%	-9.4%
63	CCOC(=O)N1CCN(C(=O)c2cc(-n3cnnc3)ccc2Cl)CC1	-26.4%	.
64	O=C(O)c1cccnc1SCc1cn2cc(Br)ccc2n1	-5.9%	1.6%
65	CCn1c(Cc2ccccc2)nnc1SCc1cccc(C(=O)O)c1	-4.9%	i
66	CNC(=O)c1cc(Nc2nnc(-c3ccc(O)cc3)c3ccccc23)ccc1OC	-5.6%&-8.3%	-15.2%
67	Cc1ccc(N2C(=O)SC(Cc3ccccc3)C2=O)cc1 (stereo not drawn)	-17.0%[7.34 µM]	-14.3%[7.34 µM]
68	Cc1nn(Cc2ccccc2)c(C)c1C(=O)NC1CCCc2ccccc21 (stereo not drawn)	-15.3%	-7.2%
69	COC(=O)c1sc2nc(SCc3ccccc3C#N)n(N)c(=O)c2c1C	2.8%	-4.1%
70	CCOC(=O)N1CCN(C(c2cc3ccccc3o2)c2nnnn2C(C)(C)C)CC1 (stereo not drawn)	9.8%	14.1%
71	O=C(CCSc1ccccc1Cl)NNC(=O)c1ccncc1	-15.2%	-4.9%
72	Nc1ccc(C(=O)N/N=C\C=C\c2ccc([N+](=O)[O-])cc2)cc1	-7.6%	-7.3%
73	CCN(c1ccccc1)S(=O)(=O)c1nnc(NC(=O)c2cccs2)s1	-10.8%	-2.9%
74	CCN1CCOC(=O)C1CC(=O)Nc1ccc(C)c(Cl)c1 (stereo not drawn)	9.3%	-4.9%
75	COc1ccc(S(=O)(=O)N2CCCCCC2)cc1C(=O)N(C)CC(=O)Nc1c(Cl)cccc1Cl	-15.4%	-0.7%

Carrying on:
entry	Structure	VACV Venus inh	Vaccinia mCherry
76	Cc1cccc(C)c1NC1=NC(C)(C)N=C(N)N1	-4.6%	-12.1%
77	CC(C)Cn1c(N)c(C(=O)COC(=O)c2ccncc2)c(=O)n(C)c1=O	-10.3%	.
78	CCc1cccc(NC(=O)C(c2ccccc2)N2Cc3ccccc3C2=O)c1 (stereo not drawn)	-12.2%	i
79	C/C(=N\Nc1nncc2ccccc12)c1ccc(OCC(=O)N(C)C)cc1	-6.2%	?
80	O=C(Nc1cccn2ncnc12)C(F)(F)F	1.3%	i
81	CC(=O)c1ccc(NC(=O)C2CCCN(S(=O)(=O)c3cccc4nonc34)C2)cc1 (stereo not drawn)	-7.8%	i
82	COc1ccc([N+](=O)[O-])cc1NC(=O)CSc1nncn1-c1ccccc1	-10.2%	-3.8%
83	CCCCn1c(N)c(N(Cc2ccccc2OC)C(=O)CSCC(=O)Nc2ccc(C)cc2)c(=O)[nH]c1=O	-10.1%	-0.6%
84	Cc1onc(-c2c(Cl)cccc2Cl)c1C(=O)N1CCc2ccccc2C1	-0.9%	-0.4%
85	COc1cccc(-c2cnc3c(NC(C)=O)cc(-c4cccc(C(=O)NCCO)c4)cn23)c1	2.1%	-17.8%
86	COc1ccccc1-c1nc2c(c(SCC(=O)Nc3ccccc3F)n1)Cc1c(CO)cnc(C)c1O2	-25.3%	-25.5%
